Compound activity as filed in PubChem.
Mtb growth: M. tuberculosis H37Rv growth inhibitors, H37Rv strain (AID 1626) | M. tuberculosis H37Rv growth inhibition; higher % means a stronger effect | one-dose inhibition, % at 10 µM; IC50 in µM for titrated hits | 220,000 tested, 0.95% active;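 active = confirmed in a dose series; inconclusive = inhibition above 80% but not taken into the dose series; inactive = below 80% or under 30% at every dose of the series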;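 note: bacteria incubated seven days before Alamar blue readout; 0% = bacteria only wells and 100% = bacteria with antibiotic wells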
YopH PTP inh: inhibitors of Yersinia enterocolitica YopH tyrosine phosphatase; AID 898; inhibition, %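 (about 10 µM by stock and volumes)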; fluorescence Ex485/Em525; 140,000 tested, 0.16% active;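 active = inhibition of 50% or more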;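 note: controls were vehicle for no effect and minimum signal wells for full effect; inactives centre near -20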
Arbovirus anti: antivirals against arbovirus infection; arbovirus infection cell-based antiviral screen; inhibition, % at 10 µM; 200,000 tested, 0.37% active;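 active = inhibition from about 30%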;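 note: bluetongue infection of BSR cells; cell survival read as ATP light after 72 h; 0% = infected wells without compound and 100% = uninfected wells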
Mtb betalactam: beta-lactam sensitization of Mtb H37Rv; 330,000 tested, 0.27% active; M. tuberculosis H37Rv growth with meropenem, percent inhibition; hits of this screen are not shown here; inhibition, % at 25 µM; AID 434955;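 active = about 74% or more and at least 40 points above the plate without the antibiotic, then above 30% in a dose series; inconclusive = first-round hits that could not be retested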;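 note: growth measured after seven days incubation then overnight dye step; 0% = bacteria only wells and 100% = bacteria with antibiotic; twin plates without the antibiotic show which effects depend on it; some results filed as inactive read as strong as hits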
RecA intein inh: inhibitors of M. tuberculosis RecA intein splicing | P9WHJ3 | cell-free RecA intein splicing, fluorescence | inhibition, %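 (about 9 µM by stock and volumes)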 | 290,000 tested, 0.75% active | AID 2221; in the data active = inhibition above about 30%; inconclusive = no clear call, values can overlap the other calls;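 note: 0% = vehicle wells and 100% = reference inhibitor control wells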
Target sequence (P9WHJ3 whole entry, looked up): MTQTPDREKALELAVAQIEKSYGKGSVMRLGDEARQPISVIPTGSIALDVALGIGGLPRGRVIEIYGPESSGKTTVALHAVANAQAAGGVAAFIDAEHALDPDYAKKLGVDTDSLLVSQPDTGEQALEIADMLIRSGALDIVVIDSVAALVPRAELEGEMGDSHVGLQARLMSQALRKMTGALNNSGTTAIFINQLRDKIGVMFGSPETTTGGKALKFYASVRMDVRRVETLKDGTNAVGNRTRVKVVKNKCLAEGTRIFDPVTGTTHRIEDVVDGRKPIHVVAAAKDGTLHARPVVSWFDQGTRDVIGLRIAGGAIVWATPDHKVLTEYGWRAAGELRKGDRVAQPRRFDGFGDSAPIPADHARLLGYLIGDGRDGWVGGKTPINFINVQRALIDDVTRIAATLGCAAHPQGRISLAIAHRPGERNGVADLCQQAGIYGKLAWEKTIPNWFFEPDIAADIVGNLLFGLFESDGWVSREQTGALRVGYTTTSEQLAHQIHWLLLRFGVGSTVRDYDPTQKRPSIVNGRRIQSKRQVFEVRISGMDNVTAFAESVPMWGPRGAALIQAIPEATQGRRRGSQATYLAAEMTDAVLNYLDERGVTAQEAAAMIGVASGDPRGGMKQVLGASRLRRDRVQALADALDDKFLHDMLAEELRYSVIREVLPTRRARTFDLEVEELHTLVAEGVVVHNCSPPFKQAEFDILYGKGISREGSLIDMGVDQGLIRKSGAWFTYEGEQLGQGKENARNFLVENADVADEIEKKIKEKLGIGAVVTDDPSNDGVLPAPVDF
Arbovirus anti repeat: recorded beside Arbovirus anti, whose call it bears; inhibition, %; measured here: 10K subset replicate screen; many hits read low in the repeat;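 first of two repeat runs on a subset; 0% = infected and 100% = uninfected wells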
Starred values were filed as active, the others as inactive; ? = inconclusive; nt = not tested or not shown. These rows are one share of the data, so the mix of outcomes need not match the whole.

SMILES	Mtb growth	YopH PTP inh	Arbovirus anti	Mtb betalactam	RecA intein inh	others
O=C(O)c1ccccc1S(=O)(=O)NCC(O)COC1CCCCC1 (stereo unspecified)	1%	-30	0	-4	0.7
Cc1ccccc1OCC(O)Cn1nnc2ccccc21 (stereo unspecified)	5%	-10	4	-5	nt
CCC(C(=O)NCc1ccco1)N(C(=O)CNS(=O)(=O)c1ccc(C)cc1)c1ccccc1OC (stereo unspecified)	1%	-9	1	nt	2.2
Cc1cccc(OCC2CCCN(Cc3nc(C4CC4)no3)C2)c1 (stereo unspecified)	7%	nt	16	24	-1.8
CCOC(=O)c1c(NC(=O)CN2C(=O)NC3(CCCCC3C)C2=O)sc(C)c1C (stereo unspecified)	9%	-35	-14	11	-0.6
Cn1c(=O)c2c(-c3ccc(C(C)(C)C)cc3)n(CC3CCCO3)cc2n(C)c1=O (stereo unspecified)	4%	-8	-6	3	-0.4
COc1cc2c(cc1OC)CN(CC(=O)NC(=O)NCc1ccccc1)CC2	-1%	nt	24	2	-12
O=C(NNC(=S)Nc1ccccc1)Nc1ccccc1	2%	nt	-3	4	-0.3
CCc1c(C)c(C#N)c2nc3ccccc3n2c1N(C)C	-1%	-44	-1	-7	nt
Cc1ccc(CN2C(=O)N/C(=C/c3ccc4c(c3)n(C)c(=O)n4C)C2=O)cc1	7%	nt	-8	12	-7.2
O=C(CN(C(=O)CCC(=O)Nc1ccccn1)C1CCCC1)NCc1ccc(F)cc1	nt	nt	nt	-6	-1.9
CCCCCSc1nncc(=O)[nH]1	-2%	-46	1	0	0.4
CCCOc1ccc(C(=O)NCCc2ccccc2)cc1	7%	nt	2	3	1.0
COc1ccc(C(=O)NC(C(=O)NCCc2ccc3c(c2)OCCO3)C(C)C)cc1 (stereo unspecified)	-9%	nt	-3	-4	-0.6
Cc1c(NC(N)=O)c(=O)n(-c2ccccc2)n1C	-5%	nt	1	6	0.9
CC(C)C(=O)N(Cc1cc2ccccc2[nH]c1=O)C(C)C	7%	-37	5	-14	1.0
CCOC(=O)C1(Cc2ccccc2C(F)(F)F)CCN(CC2CC2)CC1	-1%	nt	-16	-7	-1.7
CC12COC3(C(=O)Nc4cccnc4)CC1CCC32C (stereo unspecified)	-4%	-5	-4	-3	3.2	Arbovirus anti repeat=2
Cc1ccc2cccc(OCc3ccc(Br)cc3)c2n1	nt	nt	nt	8	1.7
Cn1c(=O)c2c(nc(SCCN3CCOCC3)n2Cc2ccccc2)n(C)c1=O	5%	-25	8	1	-3.9
CC(C)(CNC(=O)c1cccs1)CNC(=O)c1cccs1	2%	-19	5	9	-3.2
O=C(O)C1CCN(S(=O)(=O)c2ccc(N3CCOCC3)c([N+](=O)[O-])c2)CC1	-4%	nt	3	0	-0.6
O=C(COc1cccc2ccccc12)NCc1cccnc1	6%	nt	0	-5	-0.8
CC1CN(Cc2ccccc2)C(C)CC1O (stereo unspecified)	-3%	nt	10	7	-5.6
CSc1ccc(CCNC(=O)CCc2nnc3ccc(N4CCC5(CC4)OCCO5)nn23)cc1	nt	nt	nt	1	-2.1

Overlap with the part before: two compounds, then new ones.
SMILES	Mtb growth	YopH PTP inh	Arbovirus anti	Mtb betalactam	RecA intein inh	others
CC1CN(Cc2ccccc2)C(C)CC1O (stereo unspecified)	-3%	nt	10	7	-5.6
CSc1ccc(CCNC(=O)CCc2nnc3ccc(N4CCC5(CC4)OCCO5)nn23)cc1	nt	nt	nt	1	-2.1
O=C1COc2ccc(OCc3ccc(F)cc3)cc21	4%	-29	-6	32	-0.7
Cc1noc2ncnc(Oc3ccc(C(C)(C)C)cc3)c12	5%	nt	2	1	0.5
CCCCNS(=O)(=O)c1ccc2nc(SCC(=O)Nc3ccccc3Cl)[nH]c2c1	9%	-22	8	2	-2.8
CN1CCSc2ccc(C(=O)NCc3cccc(Br)c3)cc21	nt	nt	nt	-3	-6.6
COc1ccccc1N/C(N)=N/c1nc(C)cc(C)n1	-5%	nt	nt	-2	-1.0
O=C(COc1cccc2cccnc12)N/N=C1\SCC(=O)N1Cc1ccco1	-6%	-6	3	1	-1.1
Cc1cc(C)c(S(=O)(=O)NC2CC3CCC2C3)c(C)c1 (stereo unspecified)	nt	nt	nt	6	4.5
COCCC(=O)NNS(=O)(=O)c1ccc(Cl)cc1	-4%	-37	1	-6	-2.7
CCOC(=O)C1=C(C)NC(=S)N(C=O)C1c1ccccc1 (stereo unspecified)	6%	nt	-3	5	-2.9
Nc1cc(=O)[nH]c(SCC(=O)Nc2ccc(Cl)c(Cl)c2)n1	-5%	-5	2	4	3.5
CCN1CCC2(CC1)NC(=O)c1ccccc1O2	2%	nt	8	-3	-1.9
Cc1cccc(N(C(=O)Cn2nnc(-c3ccc(C)o3)n2)C(C(=O)NC2CCCC2)c2ccncc2)c1 (stereo unspecified)	nt	nt	nt	-1	0.7
COc1ccc(N/N=C(/C)c2cnnc(-c3ccccc3)n2)cc1	10%	-27	-19	72	0.4
Cc1nc2ccccc2c2nc(NC(=O)C(F)(F)F)nn12	-8%	nt	-1	-13	-0.3
Cn1cc(/C=N/NC(=O)c2ccccc2O)c2ccccc21	nt	nt	nt	23	-2.5
CC(=O)Nc1ccc(S(=O)(=O)NC2=C(N3CCN(C)CC3)C(=O)c3ccccc3C2=O)cc1	nt	nt	nt	-2	6.7
O=C1NC(c2ccc(Cl)cc2)Oc2ccccc21 (stereo unspecified)	nt	nt	nt	-2	-0.5
Cc1cccc(OCC(=O)N(Cc2ccc(F)cc2)C2CCS(=O)(=O)C2)c1C (stereo unspecified)	nt	nt	nt	5	2.1
CCCCc1noc(-c2c(-c3ccccc3Cl)noc2C)n1	18%	nt	3	0	9.3
C=CCNC(=O)c1onc(CSc2ccc(C(C)C)cc2)c1C(=O)O	-12%	-1	36*	5	-4.3
CSc1nsc(SCc2ccc(F)cc2)n1	8%	-25	-8	-6	1.4
CCCCOc1cccc(C(=O)NC(=S)Nc2cccc(NC(=O)c3ccccc3Cl)c2)c1	5%	-27	-4	5	1.6
O=C(N/N=C/C=C/c1ccccc1)C1CC1c1ccccc1 (stereo unspecified)	nt	7	2	-5	1.4
O=C1CCCCc2sc(Br)c([N+](=O)[O-])c2N1	8.4µM*	nt	nt	97	nt
CC(C)c1ccc(/C=C/C(=O)N2CCOCC2)cc1	nt	nt	nt	-6	1.2

Of the compounds above, two have a nitro group on carbon:
SMILES	Mtb growth	YopH PTP inh	Arbovirus anti	Mtb betalactam	RecA intein inh	others
O=C(O)C1CCN(S(=O)(=O)c2ccc(N3CCOCC3)c([N+](=O)[O-])c2)CC1	-4%	nt	3	0	-0.6
O=C1CCCCc2sc(Br)c([N+](=O)[O-])c2N1	8.4µM*	nt	nt	97	nt

Continuation:
SMILES	Mtb growth	YopH PTP inh	Arbovirus anti	Mtb betalactam	RecA intein inh	others
Cc1cccnc1CCNC(=O)CCc1nnc(CCc2ccccc2)o1	-6%	nt	4	-11	-0.7
Cc1ccc(C(=O)C2=C(O)C(=O)N(CCN3CCOCC3)C2c2ccccn2)o1 (stereo unspecified)	-6%	-57	-5	nt	3.4
Cc1ccc(CNC(=O)C23CN(Cc4ccccc4)CC2C(c2cccc([N+](=O)[O-])c2)=NO3)cc1 (stereo unspecified)	5%	-16	13	-7	4.0
Cc1ccc(-n2nc3c(=O)n(CCCC(=O)N4CCC(C)CC4)nc(C)c3c2C)cc1	nt	nt	nt	-8	-5.1
COc1cccc(C(=O)CC(=O)C(=O)Nc2ccc([N+](=O)[O-])cc2C)c1	nt	nt	nt	5	-3.7
CCc1cc2c(=O)c(-c3nc4ccccc4n3C)coc2c(CN2CCOCC2)c1O	-4%	-26	1	-5	-1.7
O=S1(=O)CCOCCN1Cc1ccc(Cl)cc1Cl	nt	nt	nt	1	-1.6
CCNC(=O)CCC(=O)Nc1cc(Cl)ccc1C	-2%	-40	2	-5	-0.4
C[n+]1cccc2ccc3c(c21)OC(N)=C(C#N)C3c1ccccc1 (stereo unspecified)	18%	nt	nt	-4	12
Cc1cc(C)nc(-n2ncc3c2CC(c2ccc(C(C)C)cc2)CC3=O)n1 (stereo unspecified)	13%	-3	-2	-8	6.9
CC1CN(S(=O)(=O)c2ccc(C(=O)Nc3nnc(-c4ccc5c(c4)CCCC5)o3)cc2)CC(C)O1 (stereo unspecified)	?	-24	-21	97	-0.3	Arbovirus anti repeat=-10
Cc1cc(O)c(C(C)C)cc1NC1=NS(=O)(=O)c2ccccc21	2%	-4	1	-4	-40
O=S(=O)(c1ccc(Br)c2ccccc12)N1CCOCC1	nt	nt	nt	-2	1.6
O=C(c1ccc(=O)oc1)N1CCOCC1	nt	10	14	-14	2.2
O=C(CN1C(=O)/C(=C\c2ccco2)SC1=S)Nc1ccc(O)cc1C(=O)O	nt	nt	nt	1	14
COCCCNC(=S)N(CCCN(C)C)Cc1cc2cc3c(cc2[nH]c1=O)OCCO3	nt	nt	nt	-2	-1.5
O=CN1CCN(C(=O)C(=O)c2cn(CC(=O)N3CCCCC3)c3ccccc23)CC1	nt	nt	nt	4	-1.4
CC[C@@H](C)CN1C(=O)N[C@@H](CCc2ccccc2)C(C(C)=O)=C1C	15%	nt	nt	0	-0.9
COC(C/C=C/[C@H](O)[C@@H](C)OCc1ccccc1)OC	-6%	nt	nt	-5	2.2
ON1C2CCCCC2N(O)C1c1ccccc1F (stereo unspecified)	-7%	-24	-5	2	-5.5
O=c1cc(CN2CCC3(CC2)OCCO3)c2c(ccc3ccccc32)o1	5%	-23	5	-2	-0.2
CCNc1nc(OC)nc(N2CCC(Cc3ccccc3)CC2)n1	10%	-31	-8	3	0.3
N#Cc1cc2c(nc1SCc1nc3ccccc3[nH]1)CCC2	2%	-44	-6	62	-34
CC(=O)Nc1ccc2nc(-c3ccccn3)[nH]c2c1	-8%	-34	-3	-4	-4.9
CCCc1ccc2oc(C(=O)NCCN3CCCC(C(N)=O)C3)c(C)c2c1 (stereo unspecified)	nt	nt	nt	-6	2.2

Retrieved by structure from above:
SMILES	Mtb growth	YopH PTP inh	Arbovirus anti	Mtb betalactam	RecA intein inh	others
CC(=O)Nc1ccc2nc(-c3ccccn3)[nH]c2c1	-8%	-34	-3	-4	-4.9
O=CN1CCN(C(=O)C(=O)c2cn(CC(=O)N3CCCCC3)c3ccccc23)CC1	nt	nt	nt	4	-1.4
O=C(CN1C(=O)/C(=C\c2ccco2)SC1=S)Nc1ccc(O)cc1C(=O)O	nt	nt	nt	1	14

Carrying on:
SMILES	Mtb growth	YopH PTP inh	Arbovirus anti	Mtb betalactam	RecA intein inh	others
O=C(COc1ccc(Cl)cc1)NCc1nnc(SCC(=O)NCC2CCCO2)o1 (stereo unspecified)	8%	nt	6	-8	-0.4
COc1cccc(NC(=O)CCNC(=O)Cn2ccc3ccccc3c2=O)c1	-5%	-26	1	0	0.5
COc1ccc(C2C3=C(Nc4ncnn42)c2ccccc2CC3)cc1OC (stereo unspecified)	-6%	-27	-25	-8	0.6
O=C(CN1CCc2ccccc2C1)c1cccs1	-4%	-38	-2	1	-0.9
Cc1ccc(N(CC(=O)Nc2ccc(Br)c(C)c2)S(=O)(=O)c2c(C)[nH]c(=O)[nH]c2=O)cc1	nt	nt	nt	1	15
CN1CCN(c2nc(N(C)C)oc(=O)c2C#N)CC1	-3%	-19	0	7	-2.5
CC(C)C(=O)N1CCN(c2ccccc2NC(=O)c2cc([N+](=O)[O-])ccc2N2CCOCC2)CC1	3%	nt	-3	-6	1.9
O=C1C2CCCCN2C(=O)N1CCN1CCN(c2ccc([N+](=O)[O-])cc2)CC1 (stereo unspecified)	-5%	-17	-4	-5	nt
COc1cc(/C=N/NC(=O)COc2c(C)cc([N+](=O)[O-])cc2C)ccc1OC(=O)c1ccccc1Br	7%	-22	-3	0	-7.3
Cc1cn2c(=O)c(C(=O)N3CCN(c4ccccc4F)CC3)cnc2s1	nt	nt	nt	-13	2.4
O=C(Nc1ccc2nn(-c3ccccc3)nc2c1)c1ccc2c(c1)OCCO2	3%	0	-12	12	3.0
CCC(=O)Nc1ccc(C(=O)CSc2nnc(-c3ccccc3F)n2CCc2ccccc2)cc1	19%	-9	13	10	1.8
Cc1ccc2c(c1)nnn2C1CCN(C(=O)C2CCCCC2)CC1	-2%	-38	7	?	0.1
NC1=NS(=O)(=O)NC1c1cccc(Cl)c1 (stereo unspecified)	-8%	-6	2	0	-3.7
CCC(C(=O)NC(C)(C)C)N(C(=O)c1ccc(Cl)nc1)C1CCCC1 (stereo unspecified)	-6%	nt	-3	8	-1.2
CC(/C=C/c1ccccc1)=N/NC(=O)Cn1nnc(N)n1	-12%	nt	nt	-1	1.2
O=C1Nc2ccc(S(=O)(=O)N(CCO)CCO)c3cccc1c23	nt	nt	nt	4	-1.7
COc1ccc(S(=O)(=O)N2CCCCCC2)cc1C(=O)N(C)CCOc1ccc(Cl)cc1	nt	nt	nt	-13	8.3
CCOc1ccccc1C(=O)NCC(=O)NNC(=O)c1cccc(S(=O)(=O)Nc2ccc(OC)cc2)c1	nt	nt	nt	-4	2.7
